UCH37 inh = human UCH37 deubiquitinating enzyme inhibition | 0.33% of 330,000 active | inhibition, % (no concentration beside the values) | purified proteasome/UCH37, Ub-AMC cleavage fluorescence;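 active means mean of two replicates above 20%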;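 further: 0% = compound-free wells with enzyme and 100% = wells lacking proteasome; stock transfer was 100 nL into about 20 µL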
Target sequence (Q9Y5K5 whole entry, looked up): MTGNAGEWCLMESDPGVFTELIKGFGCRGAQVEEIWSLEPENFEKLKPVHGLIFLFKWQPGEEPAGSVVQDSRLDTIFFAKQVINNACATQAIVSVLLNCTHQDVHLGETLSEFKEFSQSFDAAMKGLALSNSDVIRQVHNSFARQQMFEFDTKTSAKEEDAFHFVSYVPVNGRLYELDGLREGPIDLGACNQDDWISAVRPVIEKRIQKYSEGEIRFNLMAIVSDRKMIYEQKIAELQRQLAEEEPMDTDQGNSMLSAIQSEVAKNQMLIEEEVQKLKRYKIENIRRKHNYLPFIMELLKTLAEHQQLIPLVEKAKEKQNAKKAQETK
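system = Proteasome-associated human UCH37 deubiquitinase | amount = 0.15 nM proteasome as dispensed | medium = pH 7.4 Tris-HCl (50 mM) with ovalbumin, ATP-MgCl2, DTT | incubation = 30 min preincubation with enzyme, 25 min cleavage at room temperature | detection = AMC fluorescence 355/460 nm | read-out basis = percent inhibition | controls = no-proteasome and no-compound wells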
Vif A3G = HIV-1 Vif–A3G interaction blockers – biochemical, TR-FRET, GST-Vif 1-94, biotin-A3G peptide, dose response retest, primary screen (AID 1117319); TR-FRET GST-Vif / biotin-A3G peptide binding; higher % means a stronger effect; test concentration not given here; strong numbers were not always called active; inhibition, %; hits with a dose series show IC50 in µM; 0.57% of 260,000 active;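 active means above the screen mean plus three standard deviations and confirmed in dose response; inconclusive means results disagree or hit not tested in dose response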;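 further: Vif residues 1-94 fused to GST binding biotinylated APOBEC3G peptide 110-148; 0% = full assay without inhibitor and 100% = GST in place of GST-Vif; retest series ran down from 100 µM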
Ecoli growth = E. coli growth inhibition. AID 1053175. Escherichia coli growth, OD600, 23 h; stronger effect = lower value. OD600 absorbance (test concentration not listed). 0.21% of 330,000 active;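 active means OD600 absorbance below the run mean of sample wells minus 3.6 SD, in any replicate, cut at about 0.56 in these data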;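 further: stock transfer was 300 nL into about 60 µL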
AF4-AF9 inh = inhibitors of human MLL-AF4/AF9 interaction. P42568. AID 651704. 0.47% of 350,000 active. inhibition, % at 10 µM. AlphaScreen, biotin-AF4 peptide binding to FLAG-AF9;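 active means every replicate reaching a set inhibition limit, whatever the replicate mean, cut at about 25% in these data; inconclusive means mean inhibition reaches that limit but some replicates miss it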;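 further: 0% = plate neutral control median and 100% = total signal loss; the record names both 10 and 1 µM as test concentration; the first replicate is given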
Target sequence (P42568 whole entry, looked up): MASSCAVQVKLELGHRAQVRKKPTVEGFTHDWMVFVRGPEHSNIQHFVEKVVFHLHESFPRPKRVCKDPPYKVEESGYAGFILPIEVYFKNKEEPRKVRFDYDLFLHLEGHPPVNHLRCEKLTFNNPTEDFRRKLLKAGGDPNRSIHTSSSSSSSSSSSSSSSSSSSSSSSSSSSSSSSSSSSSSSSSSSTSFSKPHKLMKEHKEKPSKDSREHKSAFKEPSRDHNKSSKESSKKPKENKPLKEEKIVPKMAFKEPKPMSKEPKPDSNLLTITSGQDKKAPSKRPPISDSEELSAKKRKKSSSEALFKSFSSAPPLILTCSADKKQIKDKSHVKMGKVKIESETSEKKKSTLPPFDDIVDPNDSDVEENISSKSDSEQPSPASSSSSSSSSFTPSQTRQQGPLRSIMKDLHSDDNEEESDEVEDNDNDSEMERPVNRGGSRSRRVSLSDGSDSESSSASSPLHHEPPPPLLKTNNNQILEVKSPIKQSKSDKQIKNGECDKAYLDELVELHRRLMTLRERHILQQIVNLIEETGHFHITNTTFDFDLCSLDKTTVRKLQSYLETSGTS
HNF4A DNA FP = change in binding of human HNF4 alpha to DNA. HNF4a-FITC DNA binding, fluorescence polarization, 1 h. activity change, % at 10 µM. 0.3% of 360,000 active; in the data active means activity change above about 30%, passing the limit was not always enough;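 further: controls were the assay level and a saturating level of protein; the project sought stronger binding though the title names inhibitors; some compounds called inactive have numbers as strong as hits; positive values seem to mean higher polarization but the record does not say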
FGF22 binding = shifts melting point of recombinant human FGF22; Q9HCT0; calls only at 9.99 µM; 1.5% of 340,000 active; recombinant FGF22 thermal shift, SYPRO orange fluorescence; percent of sucrose octasulfate shift, DMSO zero;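 active means melting point raised past a set limit in the mean and every replicate; inconclusive means no clear call; three in four hits are not shown here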
Target sequence (Q9HCT0 whole entry, looked up): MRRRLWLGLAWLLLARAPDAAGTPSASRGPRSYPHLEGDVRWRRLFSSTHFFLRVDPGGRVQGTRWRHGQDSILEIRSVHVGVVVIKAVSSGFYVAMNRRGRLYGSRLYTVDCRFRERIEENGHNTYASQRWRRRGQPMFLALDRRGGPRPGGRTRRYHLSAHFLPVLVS
RanGTP-Impb inh = inhibitors of RanGTP-importin-beta interaction, primary screen, biochemical, FRET, CFP-Ran, YFP-importin-beta, homogeneous. cell-free CFP-Ran/YFP-importin-beta FRET ratio. inhibition, % (no concentration beside the values). 1.1% of 300,000 active;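 active means most replicates above 15%; inconclusive means exactly half above 15%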;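 further: 0% = DMSO wells and 100% = Ran loaded with GDP instead of GTP; wells of about 40 µL received 100 nL stock; the first replicate is given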
An asterisk follows results filed as active; i = inactive; ? = inconclusive; . = not tested or not shown; & = joins results of further samples. Only part of the results is shown (hit frequency here may not be typical).

no.	canonical_smiles	UCH37 inh	Vif A3G	Ecoli growth	AF4-AF9 inh	HNF4A DNA FP	FGF22 binding	RanGTP-Impb inh
1	CN(C)C(=O)c1ccc(Nc2nnc(-c3ccc(O)cc3)c3ccccc23)cc1	2.2	-1%	0.72	-1.0	0.1	i	2.0
2	O=C(Nc1ccc([N+](=O)[O-])cc1)c1ccc(S(=O)(=O)N2CCCC2)cc1	0.5	.	0.69	-2.0	-0.8	i	6.2
3	CC1CC1C(=O)OCC(=O)Nc1ccc(N=Nc2ccccc2)cc1 (stereo not drawn)	7.0	-5%	0.72	3.2	-1.6	i	1.6
4	O=C(O)c1cc(S(=O)(=O)N2CCCCCC2)ccc1Cl	2.8	2%	0.68	.	-3.2	.	3.8
5	COC(=O)c1ccc(OCC(=O)NCCC2=CCCCC2)c(OC)c1	3.1	.	0.69	0.6	0.9	i	.
6	NC(=O)C1CCN(C2CC(=O)N(c3ccc(F)c(Cl)c3)C2=O)CC1 (stereo not drawn)	1.1	0%	0.72	.	-0.3	.	4.6
7	CCC(=O)c1cn([C@H](CCC(OC)OC)CC(=O)OC(C)(C)C)cc1CC	-1.7	.	.	3.8	-3.8	i	1.6
8	CC(=O)c1sc2nsc(SCCN3CCCC3)c2c1N	8.4	6%	0.6	2.5	-0.3	i	-14
9	Cc1nonc1NC(=O)CSc1nc2ccccc2o1	0.7	.	0.67	2.3	3.0	i	1.0
10	O=C(COC(=O)CCSc1ccc(F)cc1)NCc1ccc(F)cc1	1.5	3%	0.63	1.3	0.2	i	.
11	CC1CCCCC12NC(=O)N(CC(=O)NCC(=O)Nc1ccc(F)c(F)c1F)C2=O (stereo not drawn)	1.0	0%	0.68	0.7	-1.1	i	.
12	O=C(Nc1ccc2nc(N3CCOCC3)sc2c1)c1ccc(F)cc1	-4.5	-4%	0.68	1.2	-2.1	i	.
13	O=C(Nc1cccnc1Cl)c1ccc(S(=O)(=O)N2CCCCCC2)cc1	0.1	0%	0.72	.	-2.3	.	1.5
14	COCc1[nH]nc2c1C(c1ccc(OC)c(OC)c1)C(C#N)=C(N)O2 (stereo not drawn)	0.5	0%	0.72	.	2.0	.	0.2
15	CC1CN(C(=O)/C(C#N)=C2\N=C(NC(=O)c3ccc(F)cc3)c3ccccc32)CC(C)O1 (stereo not drawn)	7.3	18%	0.68	-0.4	1.4	i	-2.2
16	O=C(COC(=O)C1CC2C=CC1C2)Nc1cccc(S(=O)(=O)N2CCCCCC2)c1 (stereo not drawn)	0.6	2%	0.69	.	0.1	.	-0.1

One compound at a time, as listed above. Order of values: UCH37 inh	Vif A3G	Ecoli growth	AF4-AF9 inh	HNF4A DNA FP	FGF22 binding	RanGTP-Impb inh
O=C(Nc1cccnc1Cl)c1ccc(S(=O)(=O)N2CCCCCC2)cc1 is entered as 0.1	0%	0.72	.	-2.3	.	1.5
Cc1nonc1NC(=O)CSc1nc2ccccc2o1 is entered as 0.7	.	0.67	2.3	3.0	i	1.0
O=C(COC(=O)C1CC2C=CC1C2)Nc1cccc(S(=O)(=O)N2CCCCCC2)c1 (stereo not drawn) is entered as 0.6	2%	0.69	.	0.1	.	-0.1
CC1CCCCC12NC(=O)N(CC(=O)NCC(=O)Nc1ccc(F)c(F)c1F)C2=O (stereo not drawn) is entered as 1.0	0%	0.68	0.7	-1.1	i	.

Next section
no.	canonical_smiles	UCH37 inh	Vif A3G	Ecoli growth	AF4-AF9 inh	HNF4A DNA FP	FGF22 binding	RanGTP-Impb inh
17	COc1c(C)cc(C(=O)C2CCCN(C(=O)CCc3scnc3C)C2)cc1C (stereo not drawn)	2.6	8%	0.72	4.2	-0.6	i	2.8
18	Cc1cc(OCC(=O)N(C)Cc2ccccc2)cc(C)c1Cl	2.8	.	0.62	-1.6	1.9	i	1.0
19	CN1C(=O)NC(c2ccccc2)C2=C1CN(c1cccc(C(F)(F)F)c1)C2=O (stereo not drawn)	2.1	1%	0.69	.	1.0	.	-1.3
20	Cc1onc(-c2c(F)cccc2Cl)c1C(=O)NCCc1ccc(S(N)(=O)=O)cc1	0.5	0%	0.7	-53	2.3	i	-5.5
21	Cc1c(CCC(=O)N[C@@H](CC(C)C)C(=O)O)c(=O)oc2cc3oc4c(c3cc12)CCCC4	-59	2%	0.62	-1.5	-4.4	i	1.9
22	CCCCCC(=O)N1C[C@@H](n2cc(-c3ccc(F)cc3)nn2)[C@H](O)C[C@@H]1c1ccc(C)cc1	.	10%	.	-0.8	-2.7	i	.
23	Cc1noc(C)c1NC(=O)N(C)C[C@H]1Oc2c(NS(=O)(=O)c3cn(C)cn3)cccc2C(=O)N([C@H](C)CO)C[C@@H]1C	3.5	.	.	-3.6	2.0	i	.
24	Cc1ccc(S(=O)(=O)Nc2ccc3ccccc3n2)cc1	-14	-8%	0.65	-1.1	5.7	i	2.8
25	C(=N\N1CCN(c2ccccn2)CC1)/c1cccc2ccccc12	.	0%	.	27*	0.6	i	1.7
26	CN1CCN(C2CN(Cc3cn(Cc4ccc(F)cc4)nn3)S(=O)(=O)C2)CC1 (stereo not drawn)	.	.	.	-3.8	-1.4	i	.
27	Cc1ccc(SCc2noc(-c3c(C)noc3C)n2)cc1	5.4	.	0.71	0.2	3.4	i	1.8
28	CCc1nc2ccc(C(=O)N3CCN(C(=O)c4ccco4)CC3)cn2c1N(CCC(C)C)CCN(C)C	.	.	.	0.2	-7.8	i	.
29	O=S(=O)(c1cc(Br)ccc1Br)N1CCCCCC1	3.2	.	0.65	-1.1	-0.3	i	1.3
30	CCCCn1c(N)c(N(CCOC)C(=O)CC(NC(=O)c2ccccc2)c2ccccc2)c(=O)[nH]c1=O (stereo not drawn)	1.6	1%	0.71	-5.2	-0.9	i	2.4
31	COc1ccc(/C=C(\C#N)C(=O)NCc2ccccc2)cc1	2.1	4%	0.69	-1.2	0.0	i	-5.1
32	COc1ccc(CN(C(=O)CCC(=O)Nc2cc(C)on2)C(C(=O)NC(C)(C)C)c2cccc(OC)c2OC)cc1 (stereo not drawn)	-0.1	.	0.69	-2.5	0.8	i	-4.2
33	O=C(Nc1nccs1)C1CC(=O)N(c2ccccc2Cl)C1 (stereo not drawn)	4.6	0%	0.67	.	1.7	.	2.0
34	O=C(O)CCCNC(=O)OCc1ccccc1	2.7	-3%	0.68	.	1.1	.	5.7
35	CC1CC(=O)c2cc(-c3ccccc3)oc2C1 (stereo not drawn)	.	12%	.	-2.7	-1.1	.	.
36	Cc1ccc(-c2ccc(/C=N/NC(=S)Nc3ccccc3)o2)cc1[N+](=O)[O-]	.	4%	.	.	-2.1	.	-1.6
37	COc1ccc(NC(=O)C[C@H]2C(=O)N(c3ccc(Br)cc3)C[C@@H]2CSC)cc1	.	6%	.	1.9	-1.9	i	.
38	CC(=O)c1cccc(NS(=O)(=O)N2CCOCC2)c1	4.9	.	0.63	0.3	-4.9	i	-1.4
39	CCOC(=O)c1c(NC(=S)NC(=O)c2ccco2)sc2c1CCCC2	4.1	-4%	0.71	.	1.2	.	-2.1
40	CCOC(=O)c1ccc(NC(=S)N2CCN(CCN=CC3=C(O)CC(c4ccccc4)CC3=O)CC2)cc1 (stereo not drawn)	5.7	7%	0.69	-1.4	-0.9	i	7.7
41	CCCCN(C(=O)C1CC(=O)N(CCc2ccc(OC)c(OC)c2)C1)c1c(N)n(CCCC)c(=O)[nH]c1=O (stereo not drawn)	-10	7%	0.66	2.5	-0.5	i	-3.2
42	COc1cc(C(Nc2ccccn2)c2ccc3ccc(C)nc3c2O)cc(OC)c1O (stereo not drawn)	2.5	26%	0.67	.	0.2	.	?
43	CN(c1ccc(OC(=O)c2ccc(-n3cncn3)c([N+](=O)[O-])c2)cc1)S(=O)(=O)c1ccccc1	5.1	7%	0.67	2.6	2.4	i	.
44	Cc1ccc(OP(=O)(Nc2c(C)n(C)n(-c3ccccc3)c2=O)Oc2ccc(C)cc2)cc1	5.3	.	0.7	-2.1	3.1	i	-1.7
45	Cc1ncsc1CCOC(=O)c1ccc(Cl)cc1	1.9	4%	0.68	-4.7	3.5	.	2.1
46	Cc1c(C)c2ccc(OCC(=O)N(C)C)c(C)c2oc1=O	-124	6%	0.72	.	2.8	.	5.7
47	S=C(NCc1ccncc1)Nc1ccc(Br)cc1Cl	-0.5	.	0.64	1.9	0.3	i	6.2
48	CCCNC(=O)N1C[C@H](O)COC[C@@H]2O[C@@H](CC(=O)NCCCN3CCOCC3)CC[C@H]21	.	.	.	-8.5&-0.2	2.1	i	.
49	CCOC(=O)Cn1c(=O)oc2cc(S(=O)(=O)NC(C)(C)CC)ccc21	1.4	-5%	0.69	.	-3.2	i	1.7
50	COCC(C)n1c(SCc2nc3ccccc3c(=O)[nH]2)nc2ccccc2c1=O (stereo not drawn)	-8.9	-8%	0.73	4.2	-1.7	i	4.7
51	O=C(NC1CCCCC1)NC1CC2CCC(C1)N2C(=S)NCc1ccco1 (stereo not drawn)	3.5	0%	0.71	-0.1	-0.8	i	4.4
52	COc1cc(OC)cc(-n2nnnc2SCC(=O)N2CCCC2)c1	0.5	-4%	0.68	.	-3.2	.	3.7
53	CCC(C)NC(=O)c1ccc(CSCc2ccc(Cl)cc2)o1 (stereo not drawn)	2.0	.	0.66	7.2	0.5	i	-1.9
54	COc1ccc(NC(=O)CCC(=O)OCc2ccc(C(=O)Oc3ccc(Cl)cc3)cc2)cc1	-0.7	-5%	0.78	.	19	.	-0.8
55	O=C(CN1CCN(C2CCS(=O)(=O)C2)CC1)N1N=C(c2ccc(Cl)cc2)CC1c1ccco1 (stereo not drawn)	1.6	-1%	0.69	5.4	0.8	i	.
56	CC(/C=C/c1ccc2c(c1)OCO2)=N\NC(=O)c1cccc([N+](=O)[O-])c1	.	0%	.	0.4	-0.8	i	-0.6
57	COC(=O)C1=COC(C)C2CN3CCc4c([nH]c5cc(OC)c(OC)cc45)C3CC12 (stereo not drawn)	2.4	?	0.75	16	-38	i	5.0
58	COc1ccc(COCC(O)CN2CCc3ccccc3C2)cc1OC (stereo not drawn)	-2.1	-3%	0.72	0.4	4.4	i	1.2
59	CSc1ccccc1OCc1cc(C(=O)N[C@H]2CCCCNC2=O)no1	-3.6	.	0.69	1.3	-4.0	i	-0.5
60	COc1ccc(NC(C)C(=O)N/N=C/c2ccc([N+](=O)[O-])s2)cc1 (stereo not drawn)	.	.	.	12	0.5	i	4.8
61	C/C(=N\Nc1cccc2cccnc12)c1ccccn1	.	.	.	7.4	1.7	i	0.2
62	Cc1ccc(C(=O)N2CCN(c3ncccn3)CC2)cc1	4.3	0%	0.69	-5.5	-1.9	i	-0.4
63	O=C(CC1Sc2ccccc2NC1=O)NNc1cc(Cl)ccc1Cl (stereo not drawn)	2.0	-6%	0.76	-0.3	4.5	i	.
64	CC(C)(C)C(=O)Nc1ccc(Sc2ccc([N+](=O)[O-])cc2)cc1	2.7	.	0.72	-0.1	-2.4	i	0.9
65	CS(=O)(=O)NCc1csc(-c2ccccc2)n1	-0.5	-3%	0.66	.	4.2	.	-2.3
66	CCOC(=O)c1c(C)nn(Cc2ccccc2)c1N	4.8	-7%	0.71	.	-2.2	.	0.2
67	CC(C)N1CCC1(C)C(=O)Nc1nccc2cccnc12 (stereo not drawn)	.	.	.	-4.5	1.0	i	.
68	CCCCn1c2ccc(C)cc2c2nnc(SCCN3CCCCC3)nc21	6.0	-7%	0.67	7.6	-0.6	i	-1.3
69	CCCCC(=O)Nc1ccc(C(=O)NCCN2CCOCC2)cc1	3.8	.	0.65	4.2	-2.2	i	-16
70	CCOC(=O)C1CCCN(C(=O)/C=C/c2ccccc2[N+](=O)[O-])C1 (stereo not drawn)	-0.7	6%	0.73	.	3.5	.	1.0

Bioassay records deposited in PubChem BioAssay by several laboratories.
